Source: PubChem
TAR Tat displ = TAR RNA-Tat peptide displacers, HIV-1, primary screen, biochemical, FRET, FAM/TAMRA-labeled Tat. HIV-1 TAR RNA, Tat peptide displacement FRET; active compounds read high. z-score (concentration not given with the values). 0.6% of 100,000 active;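 also: score is relative to mean and SD of negative controls; some compounds called inactive have numbers as strong as hits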
CDC25B-CDK2 inh = primary biochemical HTRF screen for blockers of M-phase inducer phosphatase 2 binding to CDK2/cyclin A | HTRF CDC25B-CDK2/CyclinA binding, anti-His/anti-Flag; active compounds read high | z-score (no concentration beside the values) | 0.72% of 94,000 active | AID 1259370, 2018;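 also: score is relative to mean and SD of negative controls; strong numbers were not always called active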
An asterisk follows results filed as active; · = no result given; & = joins results of further samples.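 The calls were made as follows: active = z-score from 3 up in half or more of its runs; inactive = the rest.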

SMILES	TAR Tat displ	CDC25B-CDK2 inh
O=C(Nc1sc2c(c1C(=O)NCC(O)CO)CCCC2)c1ccccc1 (configuration not stated)	0.96	-0.07
Cc1ncc(-c2ccc(C)c(S(=O)(=O)Nc3ccc4c(c3)OCCO4)c2)o1	0.67	·
CC(C)NC(=O)N1CCN(S(=O)(=O)c2ccc3c(ccn3C)c2)CC1	-0.34	·
COC(=O)c1nn(-c2ccc(OC)cc2)c(=O)c2c(N)sc(C)c12	·	0.98
O=C(CCc1nnc2ccc(NCc3cccnc3)nn12)NCc1ccc2c(c1)OCO2	1.3	·
CC1=C(c2ccccc2)S(=O)(=O)NC1=NCCc1cccs1	0.17	-1.7
O=C(CCn1nc(-c2ccc(Cl)cc2)ccc1=O)NCc1ccco1	·	-2.3
CCOC(=O)c1nnsc1NC(=O)N1CCN(c2ncccn2)CC1	0.39	·
CSc1nc(=O)c2cccnc2n1-c1ccc(C)cc1	·	-2.2
CCCc1ccc(-c2nc(Cc3ccccc3)no2)cc1	·	-0.07
Cc1c(C(=O)NC2CCCCC2)oc2ccc3c(c12)C(O)CC(C)(C)O3 (configuration not stated)	0.99	-0.45
CCN1CCN(C(c2cccs2)C(C)NS(=O)(=O)c2ccccc2)CC1 (configuration not stated)	·	-1.3
Cc1nc(C(F)(F)F)ccc1C#N	·	-1.8
Cc1cc(C2CCCN2C(=O)c2cnn3c(C(F)(F)F)cc(-c4cccs4)nc23)on1 (configuration not stated)	1.2	·
Fc1ccc(Nc2nc(-c3cccnc3)cs2)cc1	-0.25	-1.5
COC(=O)c1cccc(Nc2nn3c(=O)c4cc5c(cc4nc3s2)OCO5)c1	0.9	-8.1
CCOCCCNC(=O)Nc1cn(CC(C)C)c(=O)c2ccccc12	1.1	·
COc1ccc2c(c1)C=C(C(=O)N(C)c1ccccc1)C=CO2	-0.44	0.15
COc1ccc(C(=O)CN2C=NS(=O)(=O)c3ccccc32)cc1	0.07	·
Cc1ccc2c(=O)c(C(=O)c3ccc(F)cc3)c[nH]c2n1	-2	·
CC(C)C1N=C2c3ccccc3N=C(SCC(=O)Nc3cc(F)ccc3F)N2C1=O (configuration not stated)	1	·
CC(=O)c1cnc2c(C#N)c(C)nn2c1C	·	-0.35
Cc1ccc(-n2nnnc2CNS(=O)(=O)c2c(C)cc(C)cc2C)cc1	1.3	·
CCOc1ccc(Br)cc1C1NC(=O)c2c(sc3c2CCN(C)C3)N1 (configuration not stated)	1.8	-1.2
COc1ccccc1-c1noc2ncnc(NC3CCCCC3)c12	1.1	·
Cc1ccc(O)c(C2=Nc3ccccc3C2(C)C)c1	0.82	-2.3
CC(C)(C)NC(=O)CSCc1cnn(-c2ccccc2)c1-n1cccc1	-1.7	-1.2
Cc1ccn2c(=O)c(C(=O)NCCCOC(C)C)c(O)nc2c1	0.76	-0.31
Cc1ccc(C)c(N2C(=O)C3C4c5ccccc5C(CO)(c5ccccc54)C3C2=O)c1 (configuration not stated)	-0.49	-2.1
CC(C)OCCCN(C)C1CCN(S(=O)(=O)c2csc(C(N)=O)c2)CC1	-0.13	·
O=C(CN1C(=O)CCSc2ccc(S(=O)(=O)N3CCCC3)cc21)NCc1ccco1	1.7	·
COc1ccc(C(=O)CSc2n[nH]c(=O)n2-c2ccccc2)cc1	·	-0.65
O=C(NC1CCCC1)c1cncc(NS(=O)(=O)c2ccc(F)cc2)c1	0.69	·
Cc1c(C(=O)N2CCOCC2)c(S(=O)(=O)NCc2ccco2)c(C)n1C	0.7	·
Cn1c(=O)c2sccc2n2c(CCCC(=O)N3CCN(c4ccccc4)CC3)nnc12	-0.63	·
Cc1ncc([N+](=O)[O-])n1CC(=O)c1cc(C)n(-c2ccc(F)cc2)c1C	0.7	·
CCCCCC1C(=O)CCC1CC(=O)OC (configuration not stated)	0.73	·
O=C(NCc1cccnc1)c1ccc(N2CCSc3ncccc32)s1	0.6	·
COc1cc2c3cc1Oc1cc(ccc1O)C[C@@H]1c4c(cc(OC)c(O)c4Oc4ccc(cc4)C[C@@H]3N(C)CC2)CC[N+]1(C)C	2.4&2	·
COC(=O)CC1=NN(c2nc3ccccc3[nH]2)C(=O)C1	-1.6	-0.55
O=C(Nc1ccccc1F)N1CCCN(c2nc3cc(F)ccc3n3cccc23)CC1	1	·
O=C(Nc1ccccc1)c1cnn2c1NC(c1ccc(Br)cc1)=CC2c1ccccc1 (configuration not stated)	1.4	·
CC1CCN(c2nn3c(=O)c(C(=O)NCCc4cccs4)cnc3s2)CC1	0.76	·
CCCNc1nc(NC(C)C)c2cnn(C)c2n1	0.37	·
CC1Cc2ccccc2N1S(=O)(=O)c1cc(Br)cnc1N (configuration not stated)	1.1	0.5
COc1ccc(C2C3C(=O)NC(=O)C3ON2c2ccccc2)cc1 (configuration not stated)	0.22	-0.18
CC1CCN(C(=O)C2CCCN(S(=O)(=O)c3ccc4c(c3)CC(C)N4C(=O)C3CC3)C2)CC1 (configuration not stated)	1.1	·
CCNc1nc(Nc2ccc(OC)c(Cl)c2)c2cnn(C)c2n1	0.54	·
Cc1csc(NC(=O)C2CCCN(c3ncnc4c3nc3n4CCCCC3)C2)n1 (configuration not stated)	0.7	·
COc1ccc(N2CCN(S(=O)(=O)c3c(C)nc4sccn4c3=O)CC2)cc1	-1.6	·

Remaining list, next part:
SMILES	TAR Tat displ	CDC25B-CDK2 inh
COC(=O)c1ccc(C2C3=C(CC(c4cccs4)CC3=O)Nc3ccccc3N2C(=O)C2CC2)cc1 (configuration not stated)	0.46	0.64
CC1(C)CC2CC(C)(CN2C(=O)c2cnn3c(C(F)F)cc(-c4ccccc4)nc23)C1 (configuration not stated)	·	0.66
CC(C)Sc1ncc(Cl)c(C(=O)Nc2nc3ccc(F)cc3s2)n1	0.63	-0.24
COc1ccc(S(=O)(=O)N2CCn3c(nc4ccccc43)C2)cc1	0.29	-1.1
O=C(O)CCC/C=C\C[C@@H]1CO[C@H](C(F)(F)F)O[C@@H]1c1ccccc1O	-0.96	·
Cc1cc(=O)c2c(O)c3c(cc2o1)OCC(C)CC3 (configuration not stated)	2.7	·
Cc1nc2c(c(SCC(N)=O)n1)CCC2	0.38	-3.3
COc1ccc(CN[C@H]2CS(=O)(=O)C[C@@H]2S(=O)(=O)c2ccc(F)c(C)c2)cc1OC	-0.24	-2
O=C(Nc1ccc(F)cc1F)C1CC(c2ccc(F)cc2)=NO1 (configuration not stated)	0.94	-0.54
CN(C)CCNC(=O)C1CCN(c2nc3cccnc3s2)CC1	1.5	·
COC(=O)c1ccccc1N1C(=O)C=CC1=O	·	-0.47
Fc1ccc(Nc2c(-c3cccnc3)nc3ccccn23)cc1	·	-1.5
Clc1cccc(OCc2nc(-c3ccc(-n4cccc4)cc3)no2)c1	0.05	1.1
CC1=CC(=O)c2ccccc2C1=O	1.8	·
COc1ccc(-n2ncc(NC(=O)Nc3ccc4c(c3)OCCCO4)c2C)cc1	·	-1
N#Cc1nccnc1Oc1ccc(Cl)cc1	·	-1.1
CCOC(=O)c1sc(N2C(=O)C(O)=C(C(=O)c3ccco3)C2c2ccc(OC)cc2)nc1C (configuration not stated)	-1.2	-2.2
CNC(=O)C(C)n1sc2ccccc2c1=O (configuration not stated)	1.8	-2.1
CC(=O)N1c2ccc(S(=O)(=O)N3CCOCC3)cc2CC1C(=O)N1CCC(C)CC1 (configuration not stated)	1.5	·
O=c1oc2ccccc2nc1/C=C(\O)c1ccc([N+](=O)[O-])cc1	·	-1.2
COc1ccccc1-c1noc2ncnc(NC3CCCC3)c12	0.4	·
COCc1nn2c(=O)c(NC(=O)c3ccc(Cl)cc3)cnc2s1	-0.74	-0.73
COc1ccc(S(=O)(=O)c2nnn(-c3cc(Cl)c(OC)cc3OC)c2C)cc1	0.9	0.16
Cc1nc2nc(-c3ccccc3)nn2c(Sc2ccc(N)cc2)c1C	3	·
Cc1[nH]c2ccccc2c1C1(O)C(=O)N(Cc2cccs2)c2ccc(Cl)cc21 (configuration not stated)	-1.4	0.61
Cc1nn(-c2ccc(Br)cc2)c2nc(-c3ccncc3)cc(C(F)(F)F)c12	-0.58	2.8
Cc1ccsc1CN1CCc2nc(N3CCN(c4ccccc4F)CC3)ncc2C1	0.13	·
CCCCN(CCCNc1nn2nnnc2c2ccccc12)Cc1ccco1	1	-2.1
c1ccc(-c2nnc(CNCCN3CCOCC3)o2)cc1	0.9	0.56
CCC1=C(C(=O)OC)C(c2ccc(N(C)C)cc2)n2ncnc2N1 (configuration not stated)	-0.23	0.42
COc1ccc(N2CCN(Cc3nc(N)nc(Nc4cccc(OC)c4)n3)CC2)cc1	1.4	·
O=S(=O)(OC(Cc1ccccc1)C(F)(F)F)c1cc(C(F)(F)F)cc(C(F)(F)F)c1 (configuration not stated)	·	-9.4
Cc1nc(SCc2cc(=O)c3cc(F)ccc3[nH]2)n[nH]1	-1.4	·
CCOc1ccc(-c2nc(-c3ccc(C)cc3)no2)cc1	1.2	-0.46
O=C(N1CCSCC1)C12CC3CC(C1)CC(n1cnc([N+](=O)[O-])n1)(C3)C2	·	0.4
CC(C)(C)/C=N/NC(=O)C1CC1	·	-1.4
O=c1[nH]/c(=C/c2ccc(OC(F)(F)F)cc2)c(=O)[nH]/c1=C/c1ccc(OC(F)(F)F)cc1	·	-1.9
O=c1cc2nc(-c3cccs3)nc(SCCCOc3ccccc3Cl)n2[nH]1	0.68	·
Cc1cc(C)nc(SCCc2ccncc2)n1	2.6	-2
COc1ccc(Cc2nn3c(-c4ccncc4)nnc3s2)cc1OC	0.52	1.3
c1ccc(C2=NN3C(C2)c2ccccc2OC3c2ccc3c(c2)OCO3)cc1 (configuration not stated)	·	-0.21
Cc1ccc(S(=O)(=O)N2CCN(C)CC2)c2nsnc12	0.1	-0.78
O=c1cc(C(F)(F)F)c2c(-c3ccccc3)nn(-c3ccccc3)c2[nH]1	0.77	·
N#CC1=C(N)SC(N)=C(C#N)C1c1ccccc1	·	-1.5
Cc1nc2ccc(Oc3ccc4nc(C)[nH]c4c3)cc2[nH]1	0.09	-0.72
COc1ccc(-c2n[nH]c3c2C(c2ccc(O)c(OC)c2)NC3=O)cc1 (configuration not stated)	0.33	·
CSc1ccc(CCNC(=O)c2noc3c2CSc2ccccc2-3)cc1	1.4	-1.6
O=C1c2[nH]nc(-c3ccccc3O)c2C(c2ccc(F)cc2)N1CCO (configuration not stated)	-0.58	-1.4
CSc1ccc(NC(=O)NCCN2CCc3ccccc3C2)cc1	1.5	13*
CCOC(=O)C1CCN(S(=O)(=O)c2cc(-c3ccc(=O)[nH]n3)cc(C)c2C)CC1	1.5	·

(next part)
SMILES	TAR Tat displ	CDC25B-CDK2 inh
FC(F)(F)c1cc(-c2ccccn2)n[nH]1	·	-1.9
Cc1cc(C)c(-c2c(N3CC(C)CC(C)C3)c(=O)c2=O)cc1C (configuration not stated)	0.91	·
CS(=O)(=O)CCC(C(=O)N1CCN(c2ccccn2)CC1)N1Cc2ccccc2C1=O (configuration not stated)	1.1	·
CCOC(=O)C1CCN(S(=O)(=O)c2cc(Br)cc3c2N(C(C)=O)C(C)C3)CC1 (configuration not stated)	·	-0.85
O=c1cc(-c2c(F)c(F)c(F)c(F)c2F)oc2c(F)c(F)c(F)c(F)c12	·	-4.9
Cc1ccc(C(=O)N=Nc2c(O)[nH]c3c(Br)cc(Br)cc23)cc1	·	-1.7
CCN1CCN(c2ncc3c(n2)CCN(Cc2ccccc2)C3)CC1	0.63	·
COC(=O)CN1C(C(=O)c2ccccc2)=C(OC(=O)C(C)C)c2ccccc2S1(=O)=O	0.36	1
CCCCN1C(=O)C2(/C(=C(/O)c3ccc(C)cc3)C(=O)C(=O)N2CCCN(C)C)c2ccccc21 (configuration not stated)	1.7	-0.61
O=S(=O)(NCc1cccnc1)c1ccc(Br)cc1	-1.1	-0.17
Cc1c(NS(=O)(=O)c2cccc(Cl)c2)c(-n2cnnc2)nn1C	1.6	-0.13
CCCOC(=O)C1=C(C)NC2=C(C(=O)C(C(=O)OC)C(C)C2)C1c1ccc(Cl)cc1 (configuration not stated)	0.98	-0.23
CCc1nn(CC(=O)NC2CCCc3ccccc32)c(=O)c2cc3sc(C)cc3n12 (configuration not stated)	0.1	-3.3
